BJeLR viability: kills HRASV12-expressing BJeLR cells. BJeLR (HRASV12) viability, CellTiter-Glo ATP luminescence, 48 h; reference of the scale not given here. inhibition, % (concentration not given with the values). 0.17% of 300,000 active;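 active means replicate mean above 50%; inconclusive means above 50% but judged a plate artefact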;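 further: 50 nL library stock added to about 25 µL; numbers are from one replicate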
ugtP null kill: growth inhibition of S. aureus ugtP deletion strain | S. aureus RN4220 ugtP deletion, OD600 growth, 16 h; some inactives read as strong as hits | growth inhibition, % (no concentration beside the values) | 0.54% of 330,000 active | AID 1259309;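 active means z-score under -3 and OD600 up to 0.15 on both plates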;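 further: plate controls were untreated wells for no effect and antibiotic for full effect; wells of about 80 µL received 100 nL stock; the first replicate is given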
Bead autofluor: counter-screen for toxin protease inhibitors: compound fluorescence; AID 624483; 3.1% of 360,000 active; fluorescence intensity (test concentration not listed); compound autofluorescence counterscreen, microsphere flow cytometry; hits give high values;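 active means at least 3 SD above the mean of all compounds, about 16000 in these data; inconclusive means too few beads counted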;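 further: 100 nL of 1 mM stock went into each well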
PrP UTR inh: inhibition of PrP 5' UTR reporter expression; cell-based PrP 5' UTR mRNA reporter, plate reader; inhibition, % (concentration not given with the values); 0.35% of 340,000 active; AID 488862;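 active means every replicate at 50% or more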;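 further: 0 = median of the neutral control wells; tested in H4 reporter cells; numbers are from one replicate; inactives centre near -14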
RN4220 kill: S. aureus RN4220 growth inhibition. OD600, 16 h. 0.33% of 330,000 active. AID 1259311. inhibition, % (no concentration beside the values);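 active means z-score of -3 or lower and OD600 up to 0.18 on both plates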;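 further: plate controls were untreated cells for no effect and reference antibiotic for full effect; stock transfer was 100 nL into about 80 µL; one replicate is shown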
Mtb hypoxia inh: reduces hypoxia-regulated biosensor signal in M. tuberculosis. M. tuberculosis hypoxia-regulated fluorescent reporter, fluorescence. fluorescence inhibition, % (concentration not given with the values). 0.1% of 300,000 active;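 active means 35 to 45% if threefold the growth effect, above 45% if 1.5-fold the growth effect; inactive means the rest, general growth blockers included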;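 further: wells of about 50 µL received 100 nL stock; 0% = vehicle wells and 100% = reference inhibitor wells; whole bacteria with a GFP reporter of the hypoxia response; strong numbers were not always called active; many hits fall short of the cut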
Mtb hypoxia inh growth: recorded beside Mtb hypoxia inh, whose call it bears; growth inhibition, %; measured here: M. tuberculosis growth (absorbance);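 0% = vehicle and 100% = reference antibiotic; read after six days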
Numbers without * were called inactive; ? = inconclusive; . = not tested or not shown.

Start of the listing, in advance, seven compounds:
SMILES | BJeLR viability | ugtP null kill | Bead autofluor | PrP UTR inh | RN4220 kill | Mtb hypoxia inh | Mtb hypoxia inh growth
S=c1[nH]nc(Cc2ccc(Cl)cc2)o1 | 1 | 10 | 4717 | -11 | 1.9 | 17 | 10
CC(=O)Oc1ccccc1C(=O)OCCN=C1NS(=O)(=O)c2ccccc21 | -13 | 8 | 3727 | -7 | 2.0 | 3 | 5
CCOc1ccc(N(CC(=O)OC)S(=O)(=O)c2ccc3c(c2)n(C)c(=O)c(=O)n3C)cc1 | 4 | 11 | 5782 | -18 | 0.4 | 3 | 4
COC(=O)C1=C(C(=O)OC)C2N(C)c3ccc(OC)cc3[C@@]23CC(C(=O)OC)N(C(=O)NC2CCCCC2)C3=N1 (stereo not given in full) | . | -14 | . | . | 5.1 | 0 | 7
CN(C)S(=O)(=O)c1ccc2c(c1)C(=NNC(N)=O)c1cc(S(=O)(=O)N(C)C)ccc1-2 | 0 | 5 | 3654 | -14 | 5.9 | -5 | 0
Cc1ccc(CN2CCC(c3nc4ccc(Cl)cc4[nH]3)CC2)cc1 | -5 | -16 | 13155 | -16 | -8.6 | 20 | -8
O=C(NCCCn1ccnc1)c1ccc(Cl)c(S(=O)(=O)N2CCOCC2)c1 | -4 | 4 | 8315 | 7 | 2.9 | 7 | 7

Main list, previewed entries included:
SMILES | BJeLR viability | ugtP null kill | Bead autofluor | PrP UTR inh | RN4220 kill | Mtb hypoxia inh | Mtb hypoxia inh growth
S=c1[nH]nc(Cc2ccc(Cl)cc2)o1 | 1 | 10 | 4717 | -11 | 1.9 | 17 | 10
CC(=O)Oc1ccccc1C(=O)OCCN=C1NS(=O)(=O)c2ccccc21 | -13 | 8 | 3727 | -7 | 2.0 | 3 | 5
CCOc1ccc(N(CC(=O)OC)S(=O)(=O)c2ccc3c(c2)n(C)c(=O)c(=O)n3C)cc1 | 4 | 11 | 5782 | -18 | 0.4 | 3 | 4
COC(=O)C1=C(C(=O)OC)C2N(C)c3ccc(OC)cc3[C@@]23CC(C(=O)OC)N(C(=O)NC2CCCCC2)C3=N1 (stereo not given in full) | . | -14 | . | . | 5.1 | 0 | 7
CN(C)S(=O)(=O)c1ccc2c(c1)C(=NNC(N)=O)c1cc(S(=O)(=O)N(C)C)ccc1-2 | 0 | 5 | 3654 | -14 | 5.9 | -5 | 0
Cc1ccc(CN2CCC(c3nc4ccc(Cl)cc4[nH]3)CC2)cc1 | -5 | -16 | 13155 | -16 | -8.6 | 20 | -8
O=C(NCCCn1ccnc1)c1ccc(Cl)c(S(=O)(=O)N2CCOCC2)c1 | -4 | 4 | 8315 | 7 | 2.9 | 7 | 7
Cc1ccc(NC(=O)COc2ccc(/C=C3/NC(=O)NC3=O)cc2)cc1 | 2 | -1 | 5888 | -7 | 3.8 | 4 | 8
c1ccc(-c2cnnc3ccccc23)cc1 | 0 | 10 | 3554 | -25 | 7.3 | 10 | 5
COc1ccc(OC)c(S(=O)(=O)N2CCC(C(=O)Nc3cccc(C(F)(F)F)c3)CC2)c1 | 4 | -7 | 4297 | -35 | -2.5 | . | .
O=C(c1cccc(S(=O)(=O)N2CCCC2)c1)N1CCN(c2ccccc2)CC1 | -4 | 11 | 21121* | -28 | 3.5 | 4 | 2
COc1ccccc1CNC(=O)[C@H](CCSC)NC(=O)[C@@H]1Cc2ccccc2CN1 | -6 | 8 | 6222 | -4 | 0.7 | . | .
Cc1cc(F)ccc1S(=O)(=O)Nc1c(C)n(C)n(-c2ccccc2)c1=O | 16 | 5 | 4860 | -23 | 1.9 | -2 | -1
CCSc1nnc(-c2ccccc2N)c(=O)[nH]1 | -4 | 2 | 23571* | -26 | 2.5 | 1 | 3
COCc1cc(CN2CCCC(C(=O)Nc3ccc(-c4ccco4)cc3)C2)ccc1OC (stereo not given) | 3 | -7 | 7968 | 0 | -1.7 | 9 | 3
O=C(O)CC1SC(=Nc2ccccc2)N(c2ccccc2)C1=O (stereo not given) | 2 | 0 | 2883 | -14 | -10.0 | 11 | 14
O=C(NCCN1CCOCC1)c1cc2cc([N+](=O)[O-])ccc2s1 | -5 | 3 | 1989 | -12 | 3.8 | 15 | 3
CCCCCn1c(=O)[nH]c2cc(C(=O)NCc3ccco3)ccc2c1=O | 1 | -5 | 9224 | -29 | 0.1 | 6 | 6
CCOc1cc(/C=N/NC(=O)CN2CCOCC2)ccc1OCc1ccccc1 | -11 | . | 2503 | -14 | . | . | .
CCOC(=O)N1CCN(S(=O)(=O)c2ccc(OCC(=O)OC)cc2)CC1 | . | 7 | 4642 | -26 | 1.4 | 1 | -4
Cn1c(=O)c2c(nc(CN3CCN(c4ccc(F)cc4)CC3)n2Cc2ccccc2F)n(C)c1=O | -4 | 8 | ? | 3 | 1.0 | -6 | -3
Cc1onc(-c2ccccc2)c1C(=O)Nc1ccc(S(=O)(=O)Nc2nccs2)cc1 | -9 | -12 | 4502 | 0 | -0.1 | -4 | 11
COC(=O)C(NC(=O)C(C)NC(=O)OCc1ccccc1)C(C)C (stereo not given) | 10 | 7 | 4879 | -15 | 3.5 | -11 | -6
Cc1onc(-c2c(Cl)cccc2Cl)c1C(=O)N=C(N)N1CCOCC1 | 7 | 4 | . | -11 | 5.3 | 11 | 14
COc1cc(CNCc2ccccc2Cl)ccc1OCC(=O)NC1CCCCC1 | 0 | 2 | 6265 | -9 | 0.2 | 4 | 1
Cc1ccnc2nc(C(=O)Nc3ccc4c(c3)OCO4)nn12 | 11 | 3 | 8217 | -14 | 2.6 | 7 | 3
Cc1cccc(COc2ccc(C=NNC(=O)c3nnn(-c4nonc4N)c3CN3CCCCC3)cc2)c1 | . | -3 | . | . | 3.9 | -4 | 2
O=C(c1ccccc1NS(=O)(=O)c1ccc([N+](=O)[O-])cc1[N+](=O)[O-])N1O[C@@H]2C=C[C@H]1C2 | . | 8 | 3826 | -16 | 7.5 | 6 | 6
Cc1cc(NC(=O)CCC(=O)N(c2ccccc2F)C(C(=O)NC2CCCC2)c2ccccc2)no1 (stereo not given) | 5 | -4 | 6559 | -14 | 1.7 | 1 | 10
O=C(NC1CC1)c1ccc(NS(=O)(=O)c2ccc(F)cc2)cc1 | 2 | 4 | 4652 | -16 | 4.5 | 10 | 10
O=C(Nc1ccc(F)cc1Cl)C1CCN(C(=O)Nc2ccccc2)CC1 | -4 | 6 | 5506 | -10 | 4.2 | 11 | 6
CCSc1ncnc2c1sc1nc3c(cc12)COC(C)(C)C3 | -1 | 19 | 2577 | -75 | 8.5 | -2 | 1
COc1ccccc1NC(=O)Nc1nnc(C(C)C)s1 | 3 | -19 | 2627 | -86 | 13 | -7 | 13
COc1ccccc1NC(=O)COc1cc(C)nc(C(C)C)n1 | 14 | -1 | 5659 | 5 | -1.0 | -1 | 15
Cc1nnc(SCC(=O)N(C)c2c(N)n(Cc3ccccc3)c(=O)[nH]c2=O)n1Cc1ccccc1 | 2 | 2 | 3808 | -6 | 2.3 | 11 | 4
NC(=O)C1=C[C@@H](c2ccc(Br)cc2)C[C@@H](OCCCCO)O1 | -11 | . | 3921 | 11 | . | . | .
CN(C(=O)CSc1nc(N)cc(N)n1)C1CCS(=O)(=O)C1 (stereo not given) | 6 | 9 | 4804 | -17 | 2.6 | 13 | 5
COc1ccccc1CNC(=O)c1cn(C)c2ccc(S(=O)(=O)N3CCCCC3)cc2c1=O | 3 | 10 | . | . | 1.0 | 5 | -1
COc1ccccc1NS(=O)(=O)c1cccc(C(=O)NN=Cc2ccc([N+](=O)[O-])o2)c1 | . | 99* | . | . | 98* | 0 | 16
CC(NC(=O)c1cccs1)C1CCCO1 (stereo not given) | -10 | 11 | 4271 | -8 | 3.8 | 8 | 5
Fc1ccc(Cl)cc1C=Nn1cnnc1SCc1ccccc1 | . | 0 | . | . | 6.0 | 11 | 2
O=C(O)CCC(=O)N1CCN(c2ncccc2C(F)(F)F)CC1 | 3 | 3 | 4305 | -15 | -0.1 | 8 | 16
N#CCC(=O)N/N=C/c1cccc(Oc2ccccc2)c1 | 2 | . | 4860 | -25 | . | . | .
Nc1ccc(SC(F)(F)F)cc1C(=O)c1ccccc1 | 1 | -17 | 2613 | -26 | -12 | 1 | 12
O=C(C[n+]1cccc(C(=O)NN=Cc2cccc([N+](=O)[O-])c2)c1)c1ccccc1 | . | 6 | . | . | 3.4 | 8 | 2
Cc1ccc(NC(=O)N2CCCC2C(=O)NCC2CCCCC2)cc1 (stereo not given) | 5 | 9 | 3666 | -29 | 0.2 | 14 | 13
COc1ccc(-c2nnnn2C)cc1S(=O)(=O)NCc1ccccc1 | -5 | 13 | 9026 | -10 | 5.3 | 4 | 2
COC(=O)c1ccc(C=Nn2c(C)nc3ccccc3c2=O)cc1 | . | 3 | . | . | 1.8 | 12 | 7
Cc1cccc(C(=O)NN=Cc2ccc(OC3CSC3)cc2)c1 | . | -2 | . | . | 2.1 | 3 | 4
CCCn1c(CCNc2nc(-c3ccc(Cl)c([N+](=O)[O-])c3)cs2)nc2cc(Cl)c(Cl)cc21 | 0 | 0 | 4047 | -30 | -2.0 | 6 | 10
CC(=O)NC1(c2ccccc2)CCN(Cc2nnnn2C(C)(C)C)CC1 | -5 | 6 | 3684 | -28 | -0.6 | . | .
COc1ccc(NC(=O)CC2CC3CCC2C3)cn1 (stereo not given) | 1 | 9 | 4414 | -21 | -0.5 | 7 | 17
CS(=O)(=O)c1ccc2nc(NC(=O)CCC(=O)c3cccs3)sc2c1 | -5 | 3 | 4600 | -16 | 2.1 | . | .
Cc1c(C(=O)O)sc(S(=O)(=O)N2CCN(C(=O)CC(C)c3ccccc3)CC2)c1C(=O)O (stereo not given) | . | 7 | 3759 | -17 | 7.4 | -4 | 2
Cc1c(Cc2ccccc2)c(=O)oc2c(CN(C)C)c(O)c(Cl)cc12 | 2 | -6 | 5695 | -17 | 4.7 | 6 | 8
Cc1cc(C(=O)NN=Cc2cc(Br)cc([N+](=O)[O-])c2O)c2ccccc2n1 | . | -4 | . | . | 7.3 | 4 | -5
COc1cc2[nH]c(=O)n(CCC(=O)NC3CCCC3)c(=O)c2cc1OC | -3 | -5 | 4702 | -10 | -5.4 | . | .
COC(=O)c1ccc(CN2CCCC(CCC(=O)NCc3ccc(C)o3)C2)cc1 (stereo not given) | -5 | 7 | 6474 | -18 | 4.7 | -5 | 10
COc1cccc(/C=C/C(=O)c2ccc3c(c2)OCCO3)c1OC | -10 | 23 | . | -72 | 2.4 | 0 | 0
Cc1ccc(SC(C)C(=O)Nc2cccnc2)cc1 (stereo not given) | -2 | 1 | 4304 | -11 | 3.8 | -8 | 3

(more compounds)
SMILES | BJeLR viability | ugtP null kill | Bead autofluor | PrP UTR inh | RN4220 kill | Mtb hypoxia inh | Mtb hypoxia inh growth
CCS(=O)(=O)N1CCN(S(=O)(=O)c2ccc3c(c2)OCCO3)CC1 | 13 | 7 | 3169 | -18 | 0.6 | 1 | -7
CCC(C)n1c(O)c(/C=N/Nc2ccccc2)c(=O)[nH]c1=S (stereo not given) | -26 | 4 | 2154 | -4 | 1.8 | 3 | -3
COc1cc(NC(=O)c2cccc(COCC(F)(F)C(F)F)c2)cc(OC)c1OC | 4 | 4 | 2392 | 0 | 2.7 | 0 | 10
COc1ccc(-n2c(SCC(=O)Nc3sc4c(c3C#N)CCCC4)nnc2-c2ccccc2OC)cc1 | -5 | -26 | 2862 | -65 | -13 | 11 | 7
CC(/C=N/NC(=O)c1cccc([N+](=O)[O-])c1)=C\c1ccccc1 | 9 | . | 11122 | -25 | . | . | .
Cc1ccc(/C=C2\SC(=S)N(C(Cc3ccccc3)C(=O)O)C2=O)cc1 (stereo not given) | -18 | 4 | 8590 | -18 | 11 | 5 | -2
Nc1nnc(SCC(=O)OCC(=O)c2ccccc2Br)s1 | . | -14 | 4574 | -35 | -3.0 | -7 | 2
Cc1ccc(C(=O)C(OC(=O)CCC(=O)Nc2cccc(C)c2)c2ccccc2)cc1 (stereo not given) | 9 | 8 | 5221 | -23 | 1.7 | 8 | 16
COc1ccc(CNc2oc(-c3ccccc3)nc2C#N)cc1 | -1 | 4 | 4293 | -9 | 3.0 | . | .
CC1=C(C(=O)OCC2CCCO2)C(c2ccc(C)o2)C2=C(CC(c3ccc(F)cc3)CC2=O)N1 (stereo not given) | -15 | . | 2399 | -98 | . | . | .
Cc1nccn1S(=O)(=O)c1ccc(Br)cc1Br | -3 | -2 | 9266 | -2 | 4.0 | 5 | 3
CCN(CC)c1ccc(-c2sc(Nc3ccccc3)n[n+]2-c2ccc(F)cc2)cc1 | 10 | 2 | 17190* | -12 | 2.1 | 2 | 16
Oc1ccc2ccccc2c1C1Nc2cccc3cccc(c23)N1 | 1 | -2 | 23653* | 0 | 4.5 | 1 | -3

Compound activity from PubChem BioAssay.
